# Env fusion inh: inhibitors of HIV Env-mediated cell fusion; inhibition, % at 12.3 µM; HeLa-JRFL Env/CEM21 cell fusion, luciferase; hit rate 1.1% among 360,000;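 active = mean replicate inhibition score of at least 50 and every replicate individually at or above 50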;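 also: 0% = plate neutral controls and 100% = maraviroc near 300 nM; one replicate is shown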
# CSC inhib: cancer stem cell inhibition; cancer stem cell-like cells viability, luminescence; inhibition, % at 7.5 µM; hit rate 1.1% among 300,000; AID 2717;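 active = mean at 75% or more and at least half the replicates too; tested in HMLE shEcad cells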;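 also: 0% = median of negative and 100% = median of positive control wells; the first replicate is given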
# Rce1 inhib: inhibitors of yeast Ras-converting enzyme; Q03530; yeast membranes, quenched prenylated peptide cleavage fluorescence; calls only; hit rate 0.27% among 290,000;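 active = fall in fluorescence gain of 50% or more versus controls, with final raw signal at or below 3038400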;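 also: plate controls were neutral control wells for no effect and wells lacking membranes for full effect; tested at 10 µM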
# PABP polyA inh: PABP-poly(A) binding inhibition; P11940; PABP-poly(A) RNA binding, fluorescence polarization; inhibition, % at 35 µM; hit rate 1% among 290,000; AID 2014;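 active = 50% or more with normal probe brightness, or confirmed in later tests; about a fifth of its hits are not listed in these tables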;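 also: calls also rest on retests at 20 µM and on dose response follow-up; controls were probe without protein and protein plus probe with vehicle; some compounds called inactive have numbers as strong as hits; many hits fall short of the cut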
# Target sequence (P11940 whole entry, looked up): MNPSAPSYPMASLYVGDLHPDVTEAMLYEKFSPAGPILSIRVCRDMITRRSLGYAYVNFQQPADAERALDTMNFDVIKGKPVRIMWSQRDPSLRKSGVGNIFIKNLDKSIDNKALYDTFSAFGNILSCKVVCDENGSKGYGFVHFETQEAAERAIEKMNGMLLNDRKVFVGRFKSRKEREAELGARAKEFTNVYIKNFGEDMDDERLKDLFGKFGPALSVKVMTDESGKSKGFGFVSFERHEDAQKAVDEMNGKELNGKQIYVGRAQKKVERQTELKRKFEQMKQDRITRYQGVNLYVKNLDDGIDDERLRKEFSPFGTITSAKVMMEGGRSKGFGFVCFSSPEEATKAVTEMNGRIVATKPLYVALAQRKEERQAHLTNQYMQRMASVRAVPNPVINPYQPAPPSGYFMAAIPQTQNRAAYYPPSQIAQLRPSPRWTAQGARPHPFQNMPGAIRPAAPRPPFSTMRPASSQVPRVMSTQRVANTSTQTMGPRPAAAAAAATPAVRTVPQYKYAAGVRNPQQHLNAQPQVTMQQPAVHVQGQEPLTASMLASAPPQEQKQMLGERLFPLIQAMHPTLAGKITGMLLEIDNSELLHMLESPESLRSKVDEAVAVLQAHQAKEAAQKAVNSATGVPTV
# Yeast UUG start: modulators of start codon recognition fidelity in yeast | S. cerevisiae UUG-firefly luciferase reporter, luminescence/redox ratio | activity score, % at 18.7 µM | hit rate 0.13% among 350,000 | AID 602363;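 active = replicate mean at a twofold rise or more, about +100% in these data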;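 also: firefly luciferase made from a UUG start codon reports start codon fidelity; reporter light over untreated wells divided by growth signal over untreated wells; some hits fall short of that in this replicate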
# eIF4H inh: inhibitors of RNA binding by human eIF4H; eIF4H fluorescence polarization binding assay; inhibition, % at 35 µM; hit rate 0.94% among 290,000; AID 2012;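 active = 50% or more with normal probe brightness, or confirmed in later tests; about a fifth of its hits are not listed in these tables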;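 also: calls also rest on retests at 20 µM and on dose response follow-up; 0% = protein and probe with vehicle and 100% = probe without protein; strong numbers were not always called active; many hits fall short of the cut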
# MT1-MMP act inh: inhibitors of human MT1-MMP activation. hit rate 0.061% among 360,000. AID 651647. P50281. GFP/RFP ratio change, % at 20 µM. HT1080 RFP-PRO-GFP cells, GFP/RFP ratio fluorescence, overnight; percent of plate control window, DMSO zero;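 active = GFP/RFP ratio change of at least 30% with cell ATP level not reduced by more than half and red fluorescence within 50% of control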; also: strong numbers were not always called active
#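 Test system: HT1080 cells expressing an RFP-PRO-GFP fluorescent reporter construct / Compound dosing: single-point 20 µM compound, 1% DMSO / Schedule: cells overnight before dosing, compound overnight, 37 °C, 5% CO2 / Evaluation: GFP/RFP fluorescence ratio / Control set: DMSO and RFP-L50D-GFP cell wells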
# eIF4H inh retest: recorded beside eIF4H inh, whose call it bears; inhibition, %; compound at 20 µM; confirmation average;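 mean of two retest wells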
# PABP polyA inh retest: recorded beside PABP polyA inh, whose call it bears; inhibition, %; compound at 20 µM; confirmation repeats;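 mean of two retest wells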
# MT1-MMP act inh RFP: recorded beside MT1-MMP act inh, whose call it bears; RFP signal change, %; measured here: RFP expression control read;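 0 = vehicle wells; hits needed this value within 50% of zero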
# Numbers without * were called inactive; i = inactive; / = no result given; + = active, no number; & = joins results of further samples.
SMILES,Env fusion inh,CSC inhib,Rce1 inhib,PABP polyA inh,Yeast UUG start,eIF4H inh,MT1-MMP act inh,MT1-MMP act inh RFP,others
O=C(c1ccc(=O)n(Cc2ccc(Cl)c(Cl)c2)c1)N1CCOCC1,-35,-4,i,3,4,0,0,1,
Cc1cc(=O)n2[nH]c(-c3ccccc3)cc2n1,-38,6,i,4,-8,-6,0,1,
Cc1ccc(SCCNC(=S)Nc2ccccc2)cc1,/,7,i,8,-25,-5,1,1,
CCOCC(=O)Nc1ccc(S(=O)(=O)N2CCOCC2)cc1,-60,-1,i,-13,4,-13,-2,11,
CCSC1(SCC)N=C(N)C2(C#N)C(c3ccccc3)NC(C)=CC12C#N (stereo unspecified),/,/,i,14,-23,6,-7,1,
COC(=O)Cn1cc(C(=O)C(C)(C)C)c2ccccc21,-1,-12,i,1,0,7,1,4,
O=C(O)c1ccc(S(=O)(=O)c2ccc3c(c2)C(=O)N(c2ccccc2[N+](=O)[O-])C3=O)cc1,0,-9,/,-4,6,-6,0,4,
COc1ccc(C(=O)Nc2cccc(C(=O)NCc3ccccc3)c2)cc1,-6,/,i,-7,-10,6,3,-2,
Cc1sc2nc(SCC(N)=O)n(C)c(=O)c2c1C,-16,-16,/,4,-13,7,3,6,
CC(CCc1ccc(O)cc1)NCc1ccc(Br)cc1 (stereo unspecified),23,-2,i,3,-11,6,2,0,
NCCCS(=O)(=O)O,-3&-16,-3&-16,i,-4,-2&-4,-6,0&2,9&4,
CCCCN(C)CCN1C(=O)C2C(C(=O)Nc3cccc(OC)c3)C3C=CC2(O3)C1C(=O)NC1CCCCC1C (stereo unspecified),6,51,i,15,-3,-14,4,4,
O=C1Nc2ccccc2C1=Nc1cccc(Cl)c1,9,-4,i,-7,-17,-7,1,6,
Cc1cccc(N2CCN(C(=O)[C@H](C)N3C(=O)C4CC=CCC4C3=O)CC2)c1C (stereo partly specified),-11,5,/,/,-8,/,-1,-1,
CCOC(=O)N1CCN(Cc2nc(-c3cccs3)no2)CC1,-48,-1,i,12,/,-1,-7,2,
CCN1C(=O)c2ccc(C(=O)Nc3ncc(C)s3)cc2C1=O,-11,-8,i,1,-47,2,0,0,
O=C(CNC(=O)c1ccccn1)N/N=C/c1ccccc1,/,-5,i,2,-14,3,2,1,
Cc1cc(C)n2nc(C(=O)OCC(=O)N(CC(C)C)C3CCS(=O)(=O)C3)nc2n1 (stereo unspecified),-4,-16,/,/,-17,/,-1,1,
CCc1ccc(-c2cc(C)no2)cc1S(=O)(=O)NCc1ccccc1OC,-7,5,i,1,-10,2,-2,-4,
CCOc1ccc(CCNS(=O)(=O)c2cccc3nsnc23)cc1OCC,/,4,i,1,6,-4,1,2,
O=C(CCC1=NS(=O)(=O)c2ccccc2N1)NC1CCCCCCC1,-70,0,i,-7,0,1,2,2,
C(=C\c1ccccc1)/CN1CCN(C(c2ccnc3ccccc23)c2nnnn2-c2ccc3c(c2)OCCO3)CC1 (stereo unspecified),3,/,/,/,-4,/,-1,-6,
Nc1cc2nc3ccccc3oc-2cc1=O,/,-15,/,78*,-29,92,-16,5,eIF4H inh retest=41;PABP polyA inh retest=51*
CN(C)c1nc(N)c(C(=O)N=C(N)N)nc1Cl,11,-8,i,/,3,/,1,0,
CC(C)N(Cc1nccn1C)C(=O)c1cc(COc2ccc(-n3cncn3)cc2)on1,-15,4,i,-2,-19,10,1,-1,
COC(=O)c1sc(NC(=O)CSc2nc3nc(C)cc(C)n3n2)c(C(=O)OC)c1C,-24,-2,i,/,/,/,3,0,
Cc1ccc(NC(=O)c2ccc3nc(N4CCOCC4)sc3c2)c(Cl)c1,-8,-14,i,-4,-6,4,1,-5,
O=C(O)c1cc(O)ccc1NC(=O)c1cccc2ccccc12,-17,-11,i,2,-6,3,6,0,
Cc1cccc(NC(=S)NNC(=O)c2ccccc2Br)c1,/,-8,i,4,-34,14,/,/,
Cc1ccc(NNC(=O)c2c(F)cccc2Cl)cc1Cl,1,-5,i,-1,-10,-15,3,4,
Cc1noc(C)c1CSCC(=O)Oc1ccc(N(C)S(=O)(=O)c2ccc(Cl)cc2)cc1,-3,-11,i,/,/,/,-5,0,
O=C(Nc1cccc(S(=O)(=O)N2CCCCCC2)c1)c1ccc2c(c1)OCO2,-6,-1,i,-11,/,-7,4,-6,
Cc1cc(CNC(=O)CC2C(=O)NCCN2Cc2ccccc2C(F)(F)F)on1 (stereo unspecified),3,-8,i,22,/,19,-2,3,
CCN(CC)CCNC(=O)c1ccc(CS(=O)(=O)c2ccccc2C)o1,-2,-8,i,3,-3,2,0,0,
CC(=O)c1cccc(NC(=O)c2ccccc2N(Cc2ccccc2)S(C)(=O)=O)c1,18,-28,i,2,-4,-9,-3,-8,
COc1ccc(S(=O)(=O)N2CCCCCC2)cc1C(=O)N(C)CC(=O)Nc1ccccc1C(F)(F)F,31,/,/,/,16,/,5,-4,
COc1cc(C(=O)Nc2cc(C)nn2-c2ccccc2)cc(OC)c1OC,-6,-5,i,2,-13,-11,2,4,
CCOC(=O)c1cccc(NC(=O)c2cccnc2)c1,-30,-3,i,-2,-16,1,4,2,
O=c1[nH]c2ccccc2n2c(-c3ccccc3)nnc12,/,31,i,53,-15,3,3,1,eIF4H inh retest=2;PABP polyA inh retest=7
CN1CC(=O)Nc2ccc(Br)cc2C1=O,1,-15,i,-7,-9,-6,2,-2,
Cc1cc(C)cc(NC(=S)NCCCO)c1,-7,11,i,3,-29,3,-1,2,
CCOc1ccccc1NC(=O)c1cccc(NC2=NC3CS(=O)(=O)CC3S2)c1 (stereo unspecified),15,-2,i,-7,-5,-7,6,1,
COc1ccccc1NC(=O)C(=N\O)/C(C)=N/O,-11,-7,i,2,/,-3,0,5,
COCCCC1CCN(C(=O)C2CCC(=O)N(CCc3ccccc3)C2)CC1 (stereo unspecified),-7,-2,i,-9,0,-3,0,0,
Cc1ccc(C(=O)NC2CC(C)(C)NC(C)(C)C2)cc1S(=O)(=O)N1CCCCC1,-4,2,i,/,-14,/,1,2,
Cc1cccc(C2=NN(c3ccccc3)[C@H](CO)[C@H]2c2ccc(F)cc2)c1,14,/,/,/,3,/,-2,-7,
COC(=O)[C@H](CCSC)NC(=O)Cn1ccc(NC(=O)OCc2ccccc2)nc1=O,-17,5,/,/,0,/,0,-1,
O=C(NCCN1CCOCC1)c1ccc(CS(=O)c2ccccc2Cl)o1 (stereo unspecified),10,4,i,3,-18,-3,1,6,
Cc1ccc(C2=NN(Cc3nnc(-c4ccccc4)o3)C(=O)SC2)cc1,4,4,i,-4,/,-4,1,1,
O=C(NC(=S)N1CCN(Cc2ccccc2)CC1)c1ccccc1,-9,-5,i,-8,/,-1,0,1,

# The listing continues.
SMILES,Env fusion inh,CSC inhib,Rce1 inhib,PABP polyA inh,Yeast UUG start,eIF4H inh,MT1-MMP act inh,MT1-MMP act inh RFP,others
Cc1cccc(-c2noc(CN(C)C(=O)COc3ccccc3)n2)c1,-3,-4,i,-14,-5,-12,-1,-2,
Cc1c(NC(=O)C(C)N2CC(C)OC(C)C2)c(=O)n(-c2ccccc2)n1C (stereo unspecified),-39,-5,i,2,-7,1,5,0,
CC1=CC(=NOC(=O)/C=C/c2ccccc2)C=C(C)C1=O,/,8,i,-3,-10,5,-46,7,
C=CCn1c(=NC(=O)c2ccc(S(=O)(=O)N3CCc4ccccc4C3)cc2)sc2cc(S(N)(=O)=O)ccc21,/,/,i,-5,-16,0,-3,-7,
Fc1cccc(-c2cc3nc(-c4ccccc4)cc(N4CCC5(CC4)OCCO5)n3n2)c1,/,61,+,0,-10,-4,-3,-9,
O=[N+]([O-])c1ccc(OCC(O)CNC2CCCC2)cc1 (stereo unspecified),-17,-3,i,4,/,-6,1,1,
CC(C)(O)c1ccccc1CC[C@@H](SCC1(CC(=O)O)CC1)c1cccc(/C=C/c2ccc3ccc(Cl)cc3n2)c1,/,97*,i,/,-28,/,0,2,
COc1cccc(CNC(=O)CSc2nnc3c(n2)[nH]c2ccccc23)c1,1,-1,/,2,-26,34,4,-4,
c1ccc2oc(Cc3ccc(Cc4nc5ccccc5o4)cc3)nc2c1,-15,12,/,9,-19,-1,0,-17,
CN1CCN(/C=N/c2c(C#N)cnn2Cc2ccccc2)CC1,-37,-13,i,-1,-27,-6,-8,-2,
NC(=O)SCC(=O)Nc1ccc(Cl)c(Cl)c1,/,3,/,0,/,6,-2,4,
S=c1[nH]nc(-c2ccccc2)n1/N=C/C=C/c1ccco1,-3,-6,i,-16,/,91,-2,3,eIF4H inh retest=5;PABP polyA inh retest=2
COc1ccc(OC)c(/C=C2\SC(=S)N(N3CCOCC3)C2=O)c1,-5,3,i,8,-10,24,-4,0,
O=C(CSc1nnc(CCc2ccccc2)n1-c1ccc(Cl)cc1)c1ccccc1,-28,-3,i,12,3,-6,-11,-12,

# Assay outcomes as filed in PubChem.

# This is a subset. The share of hits here may be higher or lower than overall.
